Source: PubChem (Southern Research Institute)
Mtb growth – Mycobacterium tuberculosis H37Rv growth inhibition, putative kinase inhibitor library, confirmatory dose response (AID 2842); M. tuberculosis H37Rv growth inhibition; higher % means a stronger effect; some inactives read as strong as hits; inhibition, % at 10 µg/mL, or IC90 in µg/mL where a hit was titrated; 24,000 tested, 5.2% active;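 active = confirmed in a dose series; about a fifth of its hits are not listed in these tables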;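 note: bacteria incubated one week before Alamar blue readout; 0% = bacteria only wells and 100% = bacteria with high antibiotic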
Numbers without * were called inactive. An excerpt; the hit share may differ from the screen's.

SMILES	Mtb growth
Cc1c(Cl)cccc1NC(=O)Cn1c(=O)n(Cc2ccccc2)c(=O)c2sc3ccccc3c21	-7%
CC1Cc2nc(SCC(N)=O)n(C)c(=O)c2S1 (stereo not given)	-10%
O=C(CSC1=Nc2cccnc2Nc2ccccc21)Nc1cc(Cl)ccc1Cl	1%
CC(C)(C)c1ccc(-n2c(=O)[nH]c3c(C(N)=O)nc(-c4ccccc4[N+](=O)[O-])nc32)cc1	0%
Clc1cccc2sc(N3CCN(c4nc5c(Cl)cccc5s4)CC3)nc12	-5%
Cc1c(OC(C)C(=O)c2ccccc2)ccc2c3c(c(=O)oc12)CCC3 (stereo not given)	81%
O=C(CSc1ncnc2[nH]ncc12)c1ccc(F)c(F)c1	8%
Clc1ccc(C2NCCS2)c(Cl)c1 (stereo not given)	-4%
COc1ccc(OC)c(-c2nnc(NC(=O)Cc3ccc(F)cc3)s2)c1	-6%
C#CCn1c(=NC(=O)c2cccc([N+](=O)[O-])c2)sc2cccc(F)c21	13%
COC(=O)c1ccc(CSc2ccnc3c2c(=O)n(C)c(=O)n3C)o1	-6%
Cc1nc2sc(C(c3cccc(Cl)c3)N3CCCC(C)C3)c(O)n2n1 (stereo not given)	1%
Cc1cc(O)c(C(=O)Nc2ccccc2)c(=O)n1Cc1ccccn1	-4%
CC1C(=O)N2CCCc3cc(NC(=O)C(=O)NCc4ccco4)cc1c32 (stereo not given)	7%
O=C(CSc1ccc2nnc(-c3cccc(F)c3)n2n1)c1ccccc1	-11%
CCc1ccc(NC(=O)CSc2nc3c(c(=O)n2-c2ccc(F)cc2)SCC3)cc1	3%
Cc1cccn2c(=O)c3cc(C(=O)Nc4ccccn4)sc3nc12	1%
CCOC(=O)c1sc(NC(=O)COCC(=O)Nc2cc(C)c(C(=O)OCC)s2)cc1C	-6%
COc1ccc(Nc2nc(Nc3cccc(C)c3)nc3nccnc23)cc1	79%
O=C1NC(=Nc2ccccc2)SC1Cc1cccc(C(F)(F)F)c1 (stereo not given)	15%
COC(=O)c1ccc(NC(=O)CCN2C(=O)CSC2=O)cc1	3%
CCCc1[nH]nc2c1C(C1CC=CCC1)C(C#N)=C(N)O2 (stereo not given)	43%
Cc1ccc2nc(NC(=O)CSc3nccn3-c3cccc(C)c3C)sc2c1	8%
CCOc1ccc(C(=O)Nc2c(N)nc(SCC(=O)NC(C)C)[nH]c2=O)cc1	-1%
C/C=C/CSc1nc2c(c(=O)[nH]c(=O)n2C)n1Cc1ccc(C)cc1	14%
Cc1cccc(Cn2c(C3CC(=O)N(c4ccccc4F)C3)nc3ccccc32)c1 (stereo not given)	50%
O=C(Nc1cccc(-c2ccc(N3CCOCC3)nn2)c1)c1ccccc1[N+](=O)[O-]	5%
Cc1c(C)n2c(SCC(=O)Nc3cccc(C(F)(F)F)c3)nnc2[nH]c1=O	5%
COc1ccc2nc(Nc3nc4ccc5nc(C)sc5c4s3)sc2c1	68%
COc1ccc(OC)c(NC(=O)Cn2cnc3c(cnn3-c3ccc(C)c(C)c3)c2=O)c1	13%
COc1ccc(C=C2C(=O)NC(=O)NC2=O)cc1OC	-8%
COc1ccc(-n2nnc3c(SCC(=O)Nc4ccc(NC(C)=O)cc4)ncnc32)cc1	-1%
Cc1cccc(N2C(=O)CC(Sc3ccccc3C(=O)O)C2=O)c1C (stereo not given)	-6%
CCN(CC)S(=O)(=O)c1ccc(C(=O)Nc2nc(-c3ccc(Cl)cc3Cl)cs2)cc1	1%
Cc1cc2cc(CCNC(=O)c3cccc([N+](=O)[O-])c3)c(=O)[nH]c2cc1C	9%
CC1CCc2sc(NC(=O)C34CC5CC(CC(C5)C3)C4)c(C#N)c2C1 (stereo not given)	3%
O=C(CSc1nc2ccccc2o1)N1CCc2ccccc21	-22%
CCCCc1ccc(Nc2ncnc3c2cnn3-c2cccc(Cl)c2)cc1	3%
CN1C(=O)c2cccc(NC(=O)c3ccc([N+](=O)[O-])s3)c2C1=O	25µg/mL*
CC(=O)Nc1ccc2nc(NC(=O)C3COc4ccccc4O3)sc2c1 (stereo not given)	1%
CC(=O)Nc1nc(-c2ccc3c(c2)OCCO3)cs1	4%
CCOc1cccc2sc(NNC(=O)c3ccccc3)nc12	-3%
Cc1ccc(NC(=O)Cn2ccn(-c3cccc4ccccc34)c(=O)c2=O)cc1	-9%
Cc1c(S(=O)(=O)c2ccccc2)nnn1-c1ccccc1	-5%
COc1cccc(C(=O)Nc2nnc(-c3cccc([N+](=O)[O-])c3)s2)c1	-3%
CCCCC(=O)Nc1sc2c(c1-c1nc3ccccc3s1)CCN(C(C)=O)C2	4%
Cc1ccc(-c2nnc(NC(=O)c3cccs3)o2)c(C)c1	85%
COc1ccc(N2CC(NC(=O)Nc3ccc(F)cc3)CC2=O)cc1 (stereo not given)	-3%
C(=N\n1cnnc1)/c1ccc(-c2cccc3ccccc23)o1	-3%
CC(C)Sc1nc2c(c(=O)[nH]1)C(c1cccnc1)C1=C(CC(C)(C)CC1=O)N2 (stereo not given)	-4%
COC(=O)C(C)Sc1nc(N)c(NC(=O)c2ccco2)c(=O)[nH]1 (stereo not given)	-3%
COc1cccc(NC(=O)c2oc3ccccc3c2NC(=O)CC2CCCCC2)c1	11%
Nc1nc(SCC(=O)Nc2ccc(Cl)c(Cl)c2)[nH]c(=O)c1NC(=O)c1ccccc1F	-5%
CCOC(=O)c1nn(-c2ccc(Cl)cc2)c(=O)c2c(NC(=O)c3ccc(Br)o3)scc12	1%
Nc1nc2ccc(S(=O)(=O)N3CCCC3)cc2s1	8%
CC(=O)C(Sc1nc(N)c(NC(=O)c2ccco2)c(=O)[nH]1)C(C)=O	-4%
Cc1ccc(NC(=O)CSc2nc(N)c(NC(=O)c3ccc(C(F)(F)F)cc3)c(=O)[nH]2)cc1Cl	-11%
O=C(CSc1ccc2nnc(-c3ccncc3)n2n1)c1ccc(Cl)cc1	-7%
Cc1c(C(=O)N2CCN=C2SCc2cccnc2)cccc1[N+](=O)[O-]	3%
COc1ccc(C(=O)Nc2c(N)nc(SCC(=O)Nc3cccc4ccccc34)[nH]c2=O)cc1OC	1%
The results go on.
SMILES	Mtb growth
Cc1ccc(-n2c(SCC(=O)Nc3cccc4ccccc34)nc3c(c2=O)SCC3)cc1	6%
CCOC(=O)c1nn(-c2ccc(C(F)(F)F)cc2)c(=O)c2c(NC(=O)C(C)(C)Oc3ccc(Cl)cc3)scc12	13%
Cc1ccccc1-n1nc2c(c1NC(=O)Cc1ccc(F)cc1)CS(=O)C2 (stereo not given)	4%
Cc1ccc(C)c2[nH]c(=O)c(CCNC(=O)C3CC3)cc12	-18%
COc1cc(OC)cc(C(=O)N(CCCn2ccnc2)c2nc3ccc(OC)cc3s2)c1	70%
Cc1ccc(C(=O)Nc2nnc(-c3ccccc3Cl)s2)cc1C	-3%
COc1ccccc1CNc1nc2c(-c3cccc(C(F)(F)F)c3)nnn2c2ccccc12	-2%
CCc1n[nH]c(=S)n1/N=C(\C)c1ccc2ccccc2c1	-9%
Fc1ccccc1Cn1cc2c(-c3ccc(Cl)cc3)nnc-2c2cc3c(cc21)OCCO3	13%
O=C(Nc1nc2c(s1)Cc1ccccc1-2)c1ccc(-c2nc3ccccc3s2)s1	9%
COc1ccc2c(c1)O/C(=C\c1cccc(OC(=O)N(C)C)c1)C2=O	58%
C=C(C)Cn1c(N(CCO)Cc2ccccc2)nc2c1c(=O)[nH]c(=O)n2C	-19%
O=C(Cn1cnc2c(cnn2-c2ccc(F)cc2)c1=O)Nc1ccc(Cl)c(Cl)c1	1%
Cc1ccc(C(=O)Nc2sc(CC#N)nc2-c2cccs2)cc1	-5%
O=C(OCc1ccco1)c1cc2ccccc2oc1=O	20µg/mL*
CC1=C(C(N)=O)C(c2cc(Br)ccc2OCc2ccccc2)n2ncnc2N1 (stereo not given)	-12%
CCOc1ccc2nc(Nc3nc4ccc(NC(C)=O)cc4s3)sc2c1	7.8µg/mL*
Cc1csc2ncc(C(=O)NCc3ccc(F)cc3)c(=O)n12	-2%
CCCCN(C)S(=O)(=O)c1ccc(C(=O)Nc2nc3c(s2)CSc2ccccc2-3)cc1	-6%
CCCc1nc(SCC(=O)Nc2ccc(C)cc2C)c2c(=O)n(C)c(=O)n(C)c2n1	-12%
COc1ccc(-c2nc(SCC(=O)Nc3ccc([N+](=O)[O-])cc3)c3c(=O)n(C)c(=O)n(C)c3n2)cc1	0%
O=C(c1nc2ccccc2s1)N(Cc1cccnc1)c1nc2cc3c(cc2s1)OCO3	-7%
O=C(NC1CC(=O)N(c2ccc(Cl)cc2)C1)N1CCN(C(=O)c2ccco2)CC1 (stereo not given)	-2%
COc1ccccc1NC(=O)Cn1ccn(-c2cccc3ccccc23)c(=O)c1=O	-5%
COc1cc(/C=N/N2C(=O)C3C4c5ccccc5C(c5ccccc54)C3C2=O)ccc1O (stereo not given)	6%
CCN1C(=O)c2cccc3c(S(=O)(=O)NCCc4c[nH]c5ccccc45)ccc1c23	6%
CCCCCCn1c(SCC(=O)OC)nc2c1c(=O)n(C)c(=O)n2C	7%
Cc1ccnc(NS(=O)(=O)c2ccc(NC(=O)C3CC3)cc2)n1	-7%
Cc1csc2ncc(C(=O)Nc3ccc(F)c(F)c3)c(=O)n12	-6%
CC(C)(C)c1ccc(C(=O)Nc2sc3c(c2C(N)=O)CCCCC3)cc1	46%
COc1ccc(-c2csc(NC(=O)C3COc4ccccc4O3)n2)cc1 (stereo not given)	5%
COC(=O)c1ccccc1-c1ccc(/C=C(\C#N)c2nc3ccccc3c(=O)[nH]2)o1	-4%
CC1C(=O)N2CCCc3cc(S(=O)(=O)Nc4ccccc4Cl)cc1c32 (stereo not given)	-3%
CCOc1ccc(NC(=O)/C=C/c2ccccc2Cl)cc1	4%
COc1ccc(OC)c(NC(=O)c2oc3ccccc3c2NC(=O)CC2CCCC2)c1	-9%
Cc1[nH]n(-c2cccc(Cl)c2)c(=O)c1Sc1n[nH]c(=O)[nH]c1=O	5%

No new results follow: entries from further up.
SMILES	Mtb growth
C=C(C)Cn1c(N(CCO)Cc2ccccc2)nc2c1c(=O)[nH]c(=O)n2C	-19%
O=C(Cn1cnc2c(cnn2-c2ccc(F)cc2)c1=O)Nc1ccc(Cl)c(Cl)c1	1%
Cc1ccc(C(=O)Nc2sc(CC#N)nc2-c2cccs2)cc1	-5%
O=C(OCc1ccco1)c1cc2ccccc2oc1=O	20µg/mL*
CC1=C(C(N)=O)C(c2cc(Br)ccc2OCc2ccccc2)n2ncnc2N1 (stereo not given)	-12%
CCOc1ccc2nc(Nc3nc4ccc(NC(C)=O)cc4s3)sc2c1	7.8µg/mL*
Cc1csc2ncc(C(=O)NCc3ccc(F)cc3)c(=O)n12	-2%
CCCCN(C)S(=O)(=O)c1ccc(C(=O)Nc2nc3c(s2)CSc2ccccc2-3)cc1	-6%
CCCc1nc(SCC(=O)Nc2ccc(C)cc2C)c2c(=O)n(C)c(=O)n(C)c2n1	-12%
COc1ccc(-c2nc(SCC(=O)Nc3ccc([N+](=O)[O-])cc3)c3c(=O)n(C)c(=O)n(C)c3n2)cc1	0%
O=C(c1nc2ccccc2s1)N(Cc1cccnc1)c1nc2cc3c(cc2s1)OCO3	-7%
O=C(NC1CC(=O)N(c2ccc(Cl)cc2)C1)N1CCN(C(=O)c2ccco2)CC1 (stereo not given)	-2%
COc1ccccc1NC(=O)Cn1ccn(-c2cccc3ccccc23)c(=O)c1=O	-5%
COc1cc(/C=N/N2C(=O)C3C4c5ccccc5C(c5ccccc54)C3C2=O)ccc1O (stereo not given)	6%
CCN1C(=O)c2cccc3c(S(=O)(=O)NCCc4c[nH]c5ccccc45)ccc1c23	6%
CCCCCCn1c(SCC(=O)OC)nc2c1c(=O)n(C)c(=O)n2C	7%
Cc1ccnc(NS(=O)(=O)c2ccc(NC(=O)C3CC3)cc2)n1	-7%
Cc1csc2ncc(C(=O)Nc3ccc(F)c(F)c3)c(=O)n12	-6%
CC(C)(C)c1ccc(C(=O)Nc2sc3c(c2C(N)=O)CCCCC3)cc1	46%
COc1ccc(-c2csc(NC(=O)C3COc4ccccc4O3)n2)cc1 (stereo not given)	5%
COC(=O)c1ccccc1-c1ccc(/C=C(\C#N)c2nc3ccccc3c(=O)[nH]2)o1	-4%
CC1C(=O)N2CCCc3cc(S(=O)(=O)Nc4ccccc4Cl)cc1c32 (stereo not given)	-3%
CCOc1ccc(NC(=O)/C=C/c2ccccc2Cl)cc1	4%

New compounds follow:
SMILES	Mtb growth
O=C1c2ccccc2C(=O)N1OCCOCCON1C(=O)c2ccccc2C1=O	-12%
COc1ccc(-c2nnc(NC(=O)/C=C\c3ccc4c(c3)OCO4)s2)c(OC)c1	-3%
O=C(CCc1ccccc1)Nc1nc(-c2ccc3c(c2)OCCO3)cs1	83%
CC1(C)Cc2c(sc(NC(=O)c3ccc4c(c3)OCCO4)c2C(N)=O)C(C)(C)N1	11%
COc1ccccc1Cn1cc(C(=O)c2ccc(C)cc2)c(=O)c2cc(OC)c(OC)cc21	-2%
CCc1nnc(NC(=O)CSc2nc3ccccc3s2)s1	12%
O=C(c1ccco1)N(CCCn1ccnc1)c1nc2ccc(F)cc2s1	1.9µg/mL*
COc1ccc(-n2c(=O)[nH]c3c(C(N)=O)nc(C4CCCCC4)nc32)cc1OC	-15%
C=C(C)Cn1c(N/N=C/c2cccc(OC)c2O)nc2c1c(=O)n(C)c(=O)n2C	55%
COc1ccc(C2NC(=O)NC3=C2C(=O)N(Cc2cccs2)C3)cc1OC (stereo not given)	2%
O=C(Nc1ccc2c(c1)OCCO2)c1ccc(NS(=O)(=O)c2ccc(Cl)cc2)cc1	-5%
CC(C)N1CCc2c(sc(NC(=O)c3cc4c(ccc5ccccc54)oc3=O)c2C(N)=O)C1	40µg/mL*
O=C1C(Cl)=C(NC2CCCCC2)C(=O)N1c1ccccc1Cl	9%
COc1ccc(OC)c(NC(=O)c2oc3ccccc3c2NC(=O)C2CC2)c1	1%
O=C(Nc1nnc(-c2ccco2)o1)c1cc(-c2ccccc2)nc2ccccc12	93%
Cc1ccc(NC(c2ccccn2)c2ccc3cccnc3c2O)c(C)c1 (stereo not given)	-1%
COc1ccc(Cl)cc1NS(=O)(=O)c1cc2c3c(c1)CCN3C(=O)CC2	-10%
CN1C(=O)CC(Sc2ccccc2C(=O)O)C1=O (stereo not given)	0%
O=C(COc1ccc2ccccc2c1)Nc1c2c(nn1-c1cccc(Cl)c1)CS(=O)C2 (stereo not given)	0%
